From PubChem BioAssay
KCNQ2 enhance = enhances the rat KCNQ2 potassium channel. CHO-K1 KCNQ2, FluxOR thallium flux fluorescence; stronger effect = higher value. 0.54% of 310,000 active. AID 2239. B-score at 10 µM. O88943;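 active means fluorescence ratio B-score at least 3 SD of library B-scores, with initial fluorescence B-score within 3 SD, cut at about 5.3 in these data; same plate scores as AID 2156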;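 further: B-score of peak minus minimum over baseline fluorescence ratio after K+ and Tl+ stimulus; positive B-score means potentiation of KCNQ2 with more thallium influx and brighter signal; only the inactives scoring about 0 or higher are listed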
Target sequence (O88943 whole entry, looked up): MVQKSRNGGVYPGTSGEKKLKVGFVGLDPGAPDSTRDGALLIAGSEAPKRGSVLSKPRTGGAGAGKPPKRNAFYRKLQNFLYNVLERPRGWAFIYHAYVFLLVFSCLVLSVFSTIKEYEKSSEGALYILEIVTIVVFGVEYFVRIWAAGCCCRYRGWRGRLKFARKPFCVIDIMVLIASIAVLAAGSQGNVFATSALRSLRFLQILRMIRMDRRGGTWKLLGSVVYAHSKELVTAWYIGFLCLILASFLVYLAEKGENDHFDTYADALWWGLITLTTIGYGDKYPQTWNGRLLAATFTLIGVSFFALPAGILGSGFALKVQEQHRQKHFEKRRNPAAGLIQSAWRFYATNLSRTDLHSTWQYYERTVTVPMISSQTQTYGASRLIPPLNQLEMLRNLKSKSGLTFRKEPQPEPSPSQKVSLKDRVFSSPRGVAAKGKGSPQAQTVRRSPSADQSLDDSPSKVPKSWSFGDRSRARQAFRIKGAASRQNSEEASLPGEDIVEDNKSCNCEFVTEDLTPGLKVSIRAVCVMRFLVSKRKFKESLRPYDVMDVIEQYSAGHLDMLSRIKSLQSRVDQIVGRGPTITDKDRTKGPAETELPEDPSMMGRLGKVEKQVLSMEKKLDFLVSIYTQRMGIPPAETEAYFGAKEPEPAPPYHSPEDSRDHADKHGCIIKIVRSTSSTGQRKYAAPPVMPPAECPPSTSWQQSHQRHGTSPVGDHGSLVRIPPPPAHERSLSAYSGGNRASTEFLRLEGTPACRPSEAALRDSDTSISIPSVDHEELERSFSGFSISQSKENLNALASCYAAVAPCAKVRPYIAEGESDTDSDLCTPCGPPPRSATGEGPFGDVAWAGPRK
KCNQ2 enhance baseline = further read-out of KCNQ2 enhance, marked with its call; B-score; compound at 10 µM; measured here: initial fluorescence intensity artifact check;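 brightness before thallium and not channel activity; 0 = typical well and far values either way flag optical interference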
* marks the source's active call; other numbers are inactive results.

structure	KCNQ2 enhance	KCNQ2 enhance baseline
Cc1ccsc1C(=O)N1CCN(S(=O)(=O)c2cccc(F)c2)CC1	1.1	-0.58
CC1=C(C(=O)OCc2ccccc2)C(c2ccccc2Cl)NC(=O)N1CCCCCC(=O)O (configuration not stated)	0.99	-2.1
O=C(CC(NC(=O)c1ccccc1)c1ccccc1)Nc1ccc(F)c(F)c1 (configuration not stated)	0.2	-0.09
Cc1cccc(OCCCC(=O)Nc2ccc(S(=O)(=O)Nc3onc(C)c3C)cc2)c1	0.02	0.78
Cc1cc(C)n(-c2nc(C(F)(F)F)nc3ccccc23)n1	1.1	0
COc1cccc(CN(CC(=O)NCc2ccccc2)C(=O)c2csnn2)c1	0.04	0.53
O=C(NNS(=O)(=O)c1ccccc1[N+](=O)[O-])c1ccncc1	0.02	-0.63
CCCCCC(C)n1[nH]c(=O)cc1N (configuration not stated)	0.71	0.59
CCCOc1ccc(C(=O)Nc2ccccc2[N+](=O)[O-])cc1	1	-0.53
CN(CC(=O)N1CCN(c2ccccc2F)CC1)S(=O)(=O)c1cnc[nH]1	1.3	0.08
O=C(NCC1CCCO1)c1cccc2ccccc12 (configuration not stated)	0.01	-0.78
O=C(NCCCN1CCCCC1)c1ccc(CS(=O)c2ccc(Cl)cc2)o1 (configuration not stated)	0.01	3.3
COc1ccc(NC(=O)/C(C#N)=C\c2cc(C)n(-c3ccc(Oc4ccc([N+](=O)[O-])cn4)cc3)c2C)cc1	0.21	-1.1
O=C(NNc1cccc(Cl)n1)Nc1ccc(F)cc1	0.77	-0.22
COC(=O)c1ccc(/C=N/Nc2nc(N3CCCCC3)nc(N3CCCCC3)n2)cc1	0.2	0.06
COC(=O)c1cccc(NS(=O)(=O)c2ccc(OC)c(OC)c2)c1C	0.94	1.4
O=C(CSc1nc2c(c(=O)n1-c1ccc(Cl)cc1)SCC2)NCC1CCCO1 (configuration not stated)	0.22	-1.3
COc1ccc(Cl)cc1NC(=O)CSc1nnc(C2CC2)n1C	0.17	0.68
Cc1cc(C)n(C(=O)CSc2nnc(SCC(=O)n3nc(C)cc3C)s2)n1	1.2	0.1
Fc1ccc(CNCc2ccccc2Cl)cc1	0.83	0.13
COc1ccc(COC(=O)N/N=C/c2cccs2)cc1	2	-0.79
Cc1cc(C)nc(NC(=O)CSc2nccc(C)n2)n1	0.52	-0.39
Cc1cccc(NC(=O)c2nc[nH]c2C(=O)N[C@@H](CC(C)C)C(=O)OCc2ccccc2)c1	0.17	-1.6
CC(C)COc1ccc(S(=O)(=O)NNC(=O)c2cc3ccccc3o2)cc1	0.18	1.1
COc1ccccc1CNC(=O)C(C)NS(=O)(=O)c1ccc(Br)cc1 (configuration not stated)	1.5	-1.9
COc1ccc(C(C)C)cc1S(=O)(=O)N1CCN(C)CC1	13*	-0.28*
CCOc1cccc(C(=O)N2CCCCC2c2cccnc2)c1 (configuration not stated)	0.49	-0.83
CCOC(OCC)c1cn(Cc2ccc3c(c2)C(=O)c2ccccc2C3=O)nn1	0.83	-0.45
CC(=O)Nc1ccccc1NC(=O)c1cc(C)cc(C)c1	0.08	-0.26
Cc1cc(C)c(NC(=O)c2ccoc2C)c(C)c1	6.1*	-1.4*
CN(C)CCC(=O)NCC1OCCc2ccccc21 (configuration not stated)	0.01	-0.8
Cc1ccc(S(=O)(=O)NC(=NC(C)C(=O)O)c2ccccc2)cc1 (configuration not stated)	1.1	1.1
COc1cc(OC)c(/C=N/NC(=O)c2ccncc2)cc1Br	0.63	-0.02
Cc1ccc2c(c1C)NC(C)CC2C (configuration not stated)	1.3	0.85
Cc1oc2cc(O)ccc2c(=O)c1-c1cnn(-c2ccccc2)c1	0.12	-0.22
COc1cc2c(cc1Cl)C(=O)C(F)(c1ccccc1)C(=O)N2 (configuration not stated)	1.7	1.1
CCn1c(SCC(=O)c2ccc(O)c(O)c2)nnc1-c1ccc(C)cc1	0.2	-0.54
O=C1CC(c2nc3ccccc3[nH]2)CN1Cc1ccccc1 (configuration not stated)	0.1	-1.8
CC1CCCN(C(=O)c2cc3ccccc3cc2O)C1 (configuration not stated)	0.37	0.65
NS(=O)(=O)c1ccc(CCNC(=O)c2ccc(Br)s2)cc1	0.41	-0.7
Cn1c(=O)c2ccccc2n(CC(=O)NC2CCCCC2)c1=O	0.78	0.8
Cc1cc2c(=O)oc(-c3ccccc3Br)nc2s1	0.97	1.2
O=C(O/N=C1\CCCc2ccccc21)c1ccc(F)cc1	0.35	0.1
CCOc1ccc(NS(=O)(=O)c2ccc3[nH]cc(C(=O)NCCOC)c(=O)c3c2)cc1	0.12	-0.11
Cc1ncsc1CCC(=O)N1CCCC(C(=O)c2cccc(Cl)c2)C1 (configuration not stated)	0.2	0.15
NC(=O)CC(NC(=O)Cc1ccc(Br)cc1)c1ccc(N2CCC(Cc3ccccc3)CC2)c([N+](=O)[O-])c1 (configuration not stated)	0.81	1.5
NS(=O)(=O)c1ccc(CNC(=S)NC2CCCCC2)cc1	0.18	1.1
CCn1c(C2CCN(Cc3ccccc3)CC2)n[nH]c1=S	1.1	0.43
COc1cccc(Nc2ccc(C(=O)O)cc2N)c1	0.1	-0.62
CCSc1nnc(NC(=O)CC(C)C)s1	0.43	0.9
CN(CC(=O)N(CCO)Cc1ccccc1)S(=O)(=O)c1ccc2c(c1)c(=O)n(C)c(=O)n2C	0.99	0.7
O=c1c(-c2ccc(F)cc2)coc2cc(O)ccc12	0.5	-0.02
CCC(=O)N1COC[C@@H]1Cc1ccccc1	0.34	-1.1
COc1ccc(NC(=O)Nc2ccc(N3CCCC3=O)cc2)cc1OC	0.08	-0.33
CN(C)S(=O)(=O)c1ccc(C(=O)N2CCN(S(=O)(=O)c3cccs3)CC2)cc1	0.53	-0.02
CC(=O)Nc1ccc2nc(NC(=O)c3cccs3)sc2c1	0.11	0.33
FC(F)(F)Oc1ccc(NC(=S)NCc2ccccc2)cc1	1.4	-1.2
Cc1c(C)c2ccc(OC3CCCCC3=O)cc2oc1=O (configuration not stated)	1.3	-0.29
CCN(CC)S(=O)(=O)c1ccc2[nH]c(=O)[nH]c2c1	1.2	-0.23
CCOC(=O)CNC(=O)C(CC(N)=O)NC(=O)OC(C)(C)C (configuration not stated)	0.36	0.15

The list continues:
smiles,KCNQ2 enhance,KCNQ2 enhance baseline
O=[n+]1c2c(n([O-])c3cc(F)ccc31)CCCC2,0.06,-0.73
CN(CC1COCCO1)c1nc2nonc2nc1N1CCSCC1 (configuration not stated),0.38,-0.06
CCOC(=O)c1c(C)[nH]c(/C(C)=N/O)c1C,0.95,0.53
Cn1c(C(=O)NCCC2=CCCCC2)cc2c(=O)n3ccccc3nc21,0.27,1.8
NC(=O)C1CCN(CC(=O)Nc2ccc(S(=O)(=O)N3CCOCC3)cc2)CC1,0.12,-1.4
C=C(C)CN(CC)Cc1c(C(=O)N(C)CCCC)nc2ccccn12,0.06,-1.1
CCOC1CC(C)(C)NC(=S)N1 (configuration not stated),0.5,0.1
OC1CCCN(CC(O)COC(c2ccc(F)cc2)c2ccc(F)cc2)C1 (configuration not stated),2,1.4
CCOc1ccccc1N1CC(C(=O)Nc2ccc(C(=O)O)cc2)CC1=O (configuration not stated),0.83,0.98
CCCCC(=O)Nc1nnc(CCc2ccccc2)s1,1.8,0.47
Cc1ccc(CS(=O)Cc2ccc(C(=O)NCc3ccccc3)o2)cc1 (configuration not stated),0.86,-0.84
Oc1c(Br)cc(Br)cc1/C=N/c1nc2c(s1)CCCC2,8.7*,1.4*
COc1ccc(NC(C)=O)cc1NC(C)C(=O)Nc1cccc2ccccc12 (configuration not stated),1.7,0.77
O=C(Nc1cccc(O)c1)c1cc(-c2ccco2)on1,4.3,0.3
O=C(CSc1nnc(Cc2ccsc2)o1)c1ccccc1,1.2,0.95
C[C@H](NC(=O)[C@H](Cc1ccccc1)n1c(=O)[nH]c2ccccc2c1=O)C(=O)N1CCC[C@H]1C(=O)O,0.05,0.87
Cc1cc2cc(CNC(=O)Nc3cccc(Cl)c3)ccc2n1C,0.96,-1.7
Cc1ccc(C)c(NC(=O)CCC(=O)OC(C(=O)c2ccccc2)c2ccccc2)c1 (configuration not stated),0.21,-0.53
CC(=O)c1cccc(NC(=O)C2CCCN(S(=O)(=O)c3ccc(F)cc3)C2)c1 (configuration not stated),2.2,-0.88
CC(=O)c1cccc(NC(=O)Oc2ccccc2)c1,1.2,0.96
Cn1c(-c2ccccc2)cnc1NCc1cc(Cl)ccc1O,3.1,-2.7
CC(C)S(=O)(=O)c1csc(C(=O)NNC(=O)Nc2ccccc2)c1Cl,1.6,1.1
COc1cccc(C(=O)Nc2nc(-c3ccccc3)c(-c3ccccc3)o2)c1,2.3,0.03
COC(=O)c1cc(NC(=O)c2cc(-c3ccc(Cl)cc3)oc2C(F)(F)F)ccc1N1CCOCC1,1.1,-0.24
O=C(NCCc1ccc(Cl)cc1)c1ccc2c(c1)OCO2,0.03,1.7
Cc1cccc(-c2nnc(SCC(=O)NC3CCCC3)o2)c1,1.1,0.13
CCCc1cc(C(=O)NCC(C)C)no1,0.61,2.2
CC(=O)c1ccc(NS(=O)(=O)c2ccc(C)cc2)cc1,0.57,1.3
Cc1ccccc1C(C(=O)NC1CCCCC1)N(C(=O)CNC(=O)c1ccco1)c1cccnc1 (configuration not stated),1.4,0.21
CCc1nnc(SCc2ccc([N+](=O)[O-])cc2)nc1CC,0.45,-0.17

The list goes on, starting with the last two of the part before.
smiles,KCNQ2 enhance,KCNQ2 enhance baseline
Cc1ccccc1C(C(=O)NC1CCCCC1)N(C(=O)CNC(=O)c1ccco1)c1cccnc1 (configuration not stated),1.4,0.21
CCc1nnc(SCc2ccc([N+](=O)[O-])cc2)nc1CC,0.45,-0.17
COc1cccc(/C=N/Nc2ccccc2C(=O)O)c1O,0.92,-0.68
Cc1cc(NS(=O)(=O)c2ccc(NC(=O)CCCC(=O)O)cc2)nc(C)n1,0.27,0.61
CCOc1ccc(CNCCCSc2ncccn2)cc1,0.36,0.03
CCCC1(C(=O)O)NC(c2ccccc2O)C2C(=O)N(c3cccc(Cl)c3)C(=O)C21 (configuration not stated),0.76,-0.99
CCOC(=O)CSc1cc(C)nc(N)n1,0.05,0.23
COc1ccc(N2CCN(CCNC(=O)CCCn3c(=O)[nH]c4cc(Cl)ccc4c3=O)CC2)cc1,1.4,-0.63
O=C(O)c1ccc(-c2nc(-c3ccc(Cl)c(Cl)c3)cs2)cc1,4.3,-1.1
O=C(NCC1CCCO1)c1cccc(Oc2ccccc2)c1 (configuration not stated),0.59,0.41
Clc1nc(NCCN2CCOCC2)nc(NCc2ccccc2)n1,0.01,1.7
CCOC(=O)C1CCN(C(=O)Nc2ccc(Cl)cc2)CC1,0.67,0
CC(=O)C1=C(O)C(=O)N(CCCO)C1c1ccccc1 (configuration not stated),0.16,-0.01
CC(C)n1cnnc1SCC(=O)NC(=O)c1ccccc1,0.23,0.24
O=C(/C=C/c1ccc2c(c1)OCO2)NCc1ccc(F)cc1,1.1,-0.98
CC(NCc1ccccc1O)C12CC3CC(CC(C3)C1)C2 (configuration not stated),2,-1.1
Cc1ccc2c(c1)N(CC(=O)N1CCCc3ccccc31)C(=O)CO2,1.3,-2
NC(=O)C1CCN(C(=O)Cc2ccc(-c3ccccc3)cc2)CC1,0.86,1.1
CCOc1cc(/C=C2/NC(=O)N(CC(=O)Nc3cccc(C)c3)C2=O)ccc1OCC(N)=O,1.5,-0.09
CN(C)N1C(N)=C(C#N)C(c2ccccc2Cl)C2=C1CCCC2=O (configuration not stated),0.67,3.2
CN(C)c1cccc2c1c(NC(=O)c1ccc(Cl)cc1)nn2C,4.3,-0.31
CCn1ccc(=N)cc1,0.27,-0.44

Single values from the results shown.
Result of CN(CC(=O)N1CCN(c2ccccc2F)CC1)S(=O)(=O)c1cnc[nH]1 in KCNQ2 enhance baseline: 0.08
Result of COC(=O)c1cc(NC(=O)c2cc(-c3ccc(Cl)cc3)oc2C(F)(F)F)ccc1N1CCOCC1 in KCNQ2 enhance baseline: -0.24

In a second layout: results already given
CCOC(=O)c1c(C)[nH]c(/C(C)=N/O)c1C
  KCNQ2 enhance = 0.95; KCNQ2 enhance baseline = 0.53
Cn1c(C(=O)NCCC2=CCCCC2)cc2c(=O)n3ccccc3nc21
  KCNQ2 enhance = 0.27; KCNQ2 enhance baseline = 1.8
NC(=O)C1CCN(CC(=O)Nc2ccc(S(=O)(=O)N3CCOCC3)cc2)CC1
  KCNQ2 enhance = 0.12; KCNQ2 enhance baseline = -1.4

The listing picks up; the 2 compounds before the break are reprinted first.
smiles,KCNQ2 enhance,KCNQ2 enhance baseline
CN(C)c1cccc2c1c(NC(=O)c1ccc(Cl)cc1)nn2C,4.3,-0.31
CCn1ccc(=N)cc1,0.27,-0.44
CC(Sc1nnc(N)s1)C(=O)Nc1nccs1 (configuration not stated),0.64,-0.78
Cc1cc2oc(C(=O)Nc3ccc(S(=O)(=O)Nc4onc(C)c4C)cc3)cc(=O)c2cc1Cl,1.8,-0.01
Cc1cccc(OCCn2nc(C(=O)O)c3ccccc3c2=O)c1,1.2,-1.8
CCCCC1=NN(C(=O)c2ccncc2)C(O)(C(F)(F)F)C1 (configuration not stated),0.07,-2.4
O=C(COC(=O)c1cccs1)Nc1nnc(-c2ccccc2)o1,0.47,1.3
CCOc1ccccc1C(=O)NCC(=O)Nc1ncccc1C,1.6,-1.1
Cc1ccc(C(=O)O)cc1S(=O)(=O)N1CCCC1,1.1,-0.55
Cc1ccc(NS(=O)(=O)c2c(C(=O)N3CCCCCC3)c(C)n(C)c2C)cc1C,0.1,-0.02
COc1ccc(Cc2nc3ccc(C(=O)NCC4COCCO4)cc3o2)cc1 (configuration not stated),1.8,0.62

Some of the compounds tested, so the mix of outcomes need not match the whole.
